Screening data (PubChem)
Vif A3G – HIV-1 Vif–A3G interaction blockers – biochemical, TR-FRET, GST-Vif 1-94, biotin-A3G peptide, dose response retest, primary screen (AID 1117319) | TR-FRET GST-Vif / biotin-A3G peptide binding; higher % means a stronger effect; test concentration not given here; strong numbers were not always called active | one-dose inhibition, %; IC50 in µM for titrated hits | hit rate 0.57% among 260,000;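 active = above the screen mean plus three standard deviations and confirmed in dose response; inconclusive = results disagree or hit not tested in dose response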;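 note: Vif residues 1-94 fused to GST binding biotinylated APOBEC3G peptide 110-148; 0% = full assay without inhibitor and 100% = GST in place of GST-Vif; retest series ran down from 100 µM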
T cruzi inh – T. cruzi replication inhibition | hit rate 1.4% among 300,000 | inhibition, % (test concentration not listed) | T. cruzi beta-gal in NIH3T3, luminescence, 90 h | AID 1885;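 active = mean inhibition across valid replicates above about 55%, limit read from the data; inconclusive = mean below that limit but half or more replicates reach it; inactive = mean below it, under half of replicates reach it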;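 note: signal also drops with host cell toxicity which is not excluded here; 0% = plate median of DMSO wells and 100% = zero luminescence signal; higher percent means less beta-gal luminescence so fewer parasites; stock transfer was 50 nL into about 50 µL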
RanGTP-Imp inh – inhibitors of RanGTP-importin-beta interaction, primary screen, biochemical, FRET, CFP-Ran, YFP-importin-beta, homogeneous | inhibition, % (concentration not given with the values) | cell-free CFP-Ran/YFP-importin-beta FRET ratio | hit rate 1.1% among 300,000 | AID 2216;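 active = most replicates above 15%; inconclusive = exactly half above 15%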;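 note: 0% = DMSO wells and 100% = Ran loaded with GDP instead of GTP; wells of about 40 µL received 100 nL stock; the first replicate is given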
Bfl-1 A1 inh – inhibitors of the anti-apoptotic protein A1, read as caspase activation. MEF A1-2A-BIM cells, Caspase-Glo 3/7 luminescence, 3 h; percent of clofoctol response, vehicle zero. caspase activation, % (test concentration not listed). AID 2462. hit rate 0.066% among 330,000;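 active = over half of replicate activation scores above 10%, or exactly half above 10 with the replicate mean above 10; inconclusive = replicate mean below 10 yet half the replicates above 10; inactive = over half of replicates below 10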;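 note: wells of about 30 µL received 50 nL stock; many hits fall short of the cut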
Beta cell apopt – blocks beta cell apoptosis; hit rate 0.8% among 300,000; protection from apoptosis, % (no concentration beside the values); INS-1E cytokine-induced death, ATP luminescence, 48 h; percent of positive-control rescue, neutral wells zero;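 active = all replicates at 75% or more, or half of them and the mean; inconclusive = half reach 75% but not the mean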;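 note: 0% = cytokine-treated negative control wells and 100% = positive control rescue; higher means more ATP so stronger rescue from cytokine killing; wells of about 40 µL received 100 nL stock; the first replicate is given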
MLL AF4-AF9 inh – MLL-AF4/AF9 protein interaction inhibition; P42568; AlphaScreen, biotin-AF4 peptide binding to FLAG-AF9; inhibition, % at 10 µM; hit rate 0.47% among 350,000;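 active = every replicate reaching a set inhibition limit, whatever the replicate mean, cut at about 25% in these data; inconclusive = mean inhibition reaches that limit but some replicates miss it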;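 note: 0% = plate neutral control median and 100% = total signal loss; the record names both 10 and 1 µM as test concentration; the first replicate is given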
Target sequence (P42568 whole entry, looked up): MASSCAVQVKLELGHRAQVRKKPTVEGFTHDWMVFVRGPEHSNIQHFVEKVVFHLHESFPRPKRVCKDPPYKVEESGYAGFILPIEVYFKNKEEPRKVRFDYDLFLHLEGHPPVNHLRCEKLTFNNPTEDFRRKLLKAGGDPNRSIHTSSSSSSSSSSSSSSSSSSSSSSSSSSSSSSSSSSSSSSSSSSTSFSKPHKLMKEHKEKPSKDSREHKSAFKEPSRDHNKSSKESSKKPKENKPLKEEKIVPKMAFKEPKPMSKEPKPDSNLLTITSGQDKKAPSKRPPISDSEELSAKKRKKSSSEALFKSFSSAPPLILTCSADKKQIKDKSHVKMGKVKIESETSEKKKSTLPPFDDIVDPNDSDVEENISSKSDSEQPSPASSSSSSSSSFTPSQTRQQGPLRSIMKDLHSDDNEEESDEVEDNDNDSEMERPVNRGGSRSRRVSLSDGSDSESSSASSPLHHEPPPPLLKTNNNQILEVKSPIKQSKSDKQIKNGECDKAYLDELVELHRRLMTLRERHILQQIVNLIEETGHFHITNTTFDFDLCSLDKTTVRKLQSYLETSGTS
LANA-H2A inh – blocks KSHV LANA binding to histone H2A/H2B | Q9QR71 | cell-free LANA-H2A/H2B peptide, fluorescence polarization | inhibition, % (test concentration not listed) | hit rate 0.6% among 320,000; in the data active = inhibition mostly above about 10%, no sharp cut-off; inactive = mostly below about 6.7%;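 note: stock transfer was 7.5 nL into about 10 µL; 0% = median of vehicle wells and 100% = median of positive control wells; one replicate is shown; the record names a cut of 25% in any replicate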
Calb FLC – affects C. albicans growth with fluconazole | C. albicans CaCi-2 (fluconazole-resistant clinical isolate) + fluconazole, Alamar Blue growth, 48 h | growth inhibition, % (no concentration beside the values) | hit rate 0.57% among 300,000;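 active = most replicates above 75%; inconclusive = exactly half above 75%; inactive = most below 75%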;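 note: all wells also contain fluconazole at 8 µg/ml as a sub-toxic cotreatment; 0% = median of DMSO wells and 100% = median of geldanamycin control wells; wells of about 8 µL received 7.5 nL stock; the first replicate is given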
* = called active by the depositor; ? = inconclusive; / = not tested or not shown.

SMILES	Vif A3G	T cruzi inh	RanGTP-Imp inh	Bfl-1 A1 inh	Beta cell apopt	MLL AF4-AF9 inh	LANA-H2A inh	Calb FLC
Cc1cc(C)nc(N2CCCC(C(=O)Nc3nnc(C(C)C)s3)C2)n1 (stereo not drawn)	0%	2	1.5	/	/	/	/	-2
CCn1cc(S(=O)(=O)c2ccc(OC)cc2)c(=O)c2cc(OC)ccc21	-2%	-1	?	-0.1	-5	-1.1	4.0	-2
O=C(O)c1ccccc1C(=O)N1CCN(C(=O)c2ccccc2Cl)CC1	-8%	-8	6.4	0.4	-1	-1.9	-1.9	-4
Cn1ncc(Cl)c1C(=O)NC(=S)Nc1sc2c(c1C#N)CCCCC2	1%	1	?	0.3	4	/	2.3	16
OC(CNCCc1ccccc1)COc1ccc(OCC(O)CNCCc2ccccc2)cc1 (stereo not drawn)	/	41	4.7	0.2	3	2.2	0.5	7
O=C(CCN1C(=O)C2C3C=CC(C3)C2C1=O)NCc1cccnc1 (stereo not drawn)	-4%	-25	2.2	0.2	-9	/	3.0	3
COc1cccc(CNC(=O)CSc2ccc(-c3ccncc3)nn2)c1	/	-3	?	1.2	-4	/	7.4	-2
COc1ccc(CN(CC2CCC(C(=O)O)CC2)C(=S)Nc2cc(Cl)ccc2OC)cc1 (stereo not drawn)	-4%	4	-2.1	0.1	1	-3.1	-2.1	17
O=C(/C=C/c1ccccc1)Oc1ccccc1C(=S)N1CCOCC1	/	-9	-2.6	-0.9	-6	7.4	-21	-2
Cc1ccc(OCC(O)CNCc2ccc(F)cc2)cc1 (stereo not drawn)	4%	56*	-1.1	-0.2	0	-2.1	2.4	-4
Cc1ccc(NC(=S)NC2CCSc3ccccc32)cc1 (stereo not drawn)	10%	1	-1.0	0.4	5	2.9	-17	15
O=C(Nc1nccs1)C1CC(=O)N(c2ccc(Cl)cc2)C1 (stereo not drawn)	7%	-13	-7.9	1.4	-1	-1.3	-0.5	30
C=CCc1cc(C)ccc1OCCn1ccnc1	6%	0	-5.3	-1.1	/	/	-1.3	-9
COC(C(=O)Nc1ccnn1C1CCN(C(=O)c2cccc(F)c2)CC1)c1ccccc1 (stereo not drawn)	/	10	0.4	0.9	-2	5.5	-3.6	4
O=C(NCc1ccccn1)C(=O)NCC(c1ccco1)N1CCOCC1 (stereo not drawn)	3%	-6	1.1	-0.4	0	-2.2	0.4	-2
Cc1ccc2c(c1)nnn2C1CCN(CC(=O)NNC(=O)c2ccco2)CC1	/	3	/	0.3	2	-2.7	-11	-16
Cc1ccc2ncnc(Nc3ccc(C)c(C)c3)c2c1	-40%	3	-6.9	0.0	18	1.3	-3.9	3
COC(=O)C1=C(C(=O)OC)[C@@H]2Nc3ccccc3[C@@]23C[C@@H](C(=O)OC)N(C(=O)c2cccs2)C3=N1	/	-9	-1.4	2.0	-17	/	-1.4	4
C=CCOC(=O)C(C#N)c1nc2ccccc2nc1N1CCN(Cc2ccccc2)CC1 (stereo not drawn)	?	/	/	-1.1	12	/	1.2	13
Cc1nc2cc(-c3ccccc3)nn2c(C)c1CCC(=O)NC(C)c1ccc2c(c1)OCCO2 (stereo not drawn)	-6%	34	0.1	0.2	0	3.6	2.8	6
O=C(NCc1ccco1)c1cccc(S(=O)(=O)N2CCc3ccccc32)c1	/	-16	2.9	1.3	1	0.8	0.2	0
COc1ccc(Br)cc1/C=N/NC(=O)c1cc(OC)c(OC)c(OC)c1	5%	-16	-4.6	1.4	19	/	-0.6	-9
CN(c1ccccc1)S(=O)(=O)c1ccc(Cl)c(C(=O)NCc2ccccc2CN2CCCC2)c1	-12%	/	/	-0.3	-10	5.7	5.8	/
N#C/C(=N\Nc1ccc(Cl)cc1)C(=N)N1CCCCCC1	0%	15	-2.0	-1.5	0	-1.8	1.5	-2
CN(C)S(=O)(=O)c1cc(NC(=O)COC(=O)c2ccc3c(c2)OCO3)ccc1Cl	-2%	/	/	0.2	-7	/	3.5	/
CC(=O)/C(=N/Nc1ccccc1)Sc1nnc(CCc2ccccc2)n1-c1ccccc1	/	20	1.9	-0.3	-8	5.0	2.7	7
CCOC(=O)c1sc2c(c1C)c(=O)c(C(=O)OCC)cn2CC	-3%	-5	-0.8	0.8	-1	-8.4	0.7	-2
Cc1ccccc1NC(=O)C1CCN(c2cc(-c3ccccc3)nc3ncnn23)CC1	-3%	8	-0.1	0.3	28	/	-5.0	-14
CCOC(=O)c1c(-c2ccccc2)oc2ccc(OCC(=O)NNC(=O)CCC(=O)O)cc12	-2%	-2	-2.8	0.0	3	1.6	0.8	6
Cc1cc(C(=O)O)ccc1N=Cc1c(O)ccc2ccccc12	/	7	-3.0	0.0	-5	-0.6	0.6	21
Cc1ccccc1N1C(=O)C2ON(c3ccccc3)C(c3ccncc3)C2C1=O (stereo not drawn)	5%	0	4.0	0.4	-5	/	3.2	9
CC1=C(C(=O)N2CCCCCC2)C2(CCC(C)CC2)OC1=O (stereo not drawn)	5%	-4	7.1	0.2	-8	/	0.4	31
Cc1cccc(C)c1NC(=O)CN1C(=O)C(C)Oc2ccccc21 (stereo not drawn)	/	4	0.2	0.0	-4	1.4	-0.9	-15
COc1cc2c(cc1OC)C(C)N(C(=O)c1cc3n(n1)C(C(F)(F)F)CC(c1ccco1)N3)CC2 (stereo not drawn)	28µM*	8	-3.2	-2.5	-7	/	-8.5	31
COc1ccccc1N(CC(=O)NCc1ccco1)S(C)(=O)=O	-4%	-10	-2.1	0.0	-12	0.9	-2.8	3
O=C(Nc1ccccc1F)c1cc(C(=O)Nc2ccccc2F)cc([N+](=O)[O-])c1	4%	-5	-1.7	0.9	7	-3.8	-0.9	3
COc1ccc(N2CCN(C(=S)Nc3ccc(OC)cc3OC)CC2)cc1	/	6	0.7	0.6	-3	-1.9	0.4	8
Nc1nnc(CCS(=O)(=O)c2cc(Cl)ccc2Cl)s1	9%	-4	-1.5	0.2	-6	/	-2.6	-22
CCCCOc1cccc(OCCCC)c1C(=O)Nc1cc(C)on1	7%	24	-1.9	0.6	3	/	-0.9	33
CC1(C)CC(NC(=O)CCC2CCCC2)CC(C)(C)N1	-5%	-5	?	-0.3	1	/	-0.6	0
COc1ccc(NC(=O)CS(=O)c2cccc(C(F)(F)F)c2)cc1 (stereo not drawn)	/	-7	-0.7	0.2	3	0.0	-5.8	17
Cc1c(CCO)c(=O)[nH]n1S(=O)(=O)c1cccc(C(F)(F)F)c1	/	-2	1.7	-0.3	2	0.0	-5.0	3
O=C1O/C(=C/c2ccccc2)c2ccccc21	-8%	-11	1.0	-0.1	-3	13	-2.6	-28
CCOc1ccc2nc(NCCNC(=O)Nc3cccc(C)c3)c(C#N)cc2c1	-2%	0	-1.8	7.5*	52	/	5.0	-22
COc1ccc(C(=O)OC(C)CN2CCOCC2)cc1 (stereo not drawn)	-2%	-3	-1.8	-0.9	-6	-1.9	4.8	4
CCN(CC)S(=O)(=O)c1ccc2[nH]cc(C(=O)NCCCN3CCCCC3)c(=O)c2c1	30%	-5	-1.5	0.3	-3	-9.4	1.9	-2
Cc1cc(SCC(=O)Nc2cccc(S(=O)(=O)NC3=NCCCCC3)c2)c(C)cc1Br	?	18	4.2	0.2	-7	/	-2.8	6
COc1cccc(C(=O)N(c2ccccc2)C2C=CS(=O)(=O)C2)c1 (stereo not drawn)	8%	9	7.2	0.5	-4	-0.9	-1.8	0
C[C@@]12C(=O)Nc3ccc(F)cc3C(=O)N1[C@H]1c3cc(Br)ccc3OC[C@@H]1[C@@H]2c1ccccc1	/	/	/	0.1	-6	0.4	-0.4	/
COC(=O)c1ccc2c(c1)C(=O)/C(=C/c1ccc(O)cc1)O2	/	-3	19*	-1.2	0	-3.5	-22	9
(listing goes on)
SMILES	Vif A3G	T cruzi inh	RanGTP-Imp inh	Bfl-1 A1 inh	Beta cell apopt	MLL AF4-AF9 inh	LANA-H2A inh	Calb FLC
Cc1ccc(CN(C)C(=O)COc2ccc(S(=O)(=O)N3CCCC3)cc2[N+](=O)[O-])c(C)c1	/	/	/	-1.9	-2	5.2	-1.2	/
CCC(C)(C)NC(=O)CCn1c(-c2ccccc2)cc(C(C)=O)c1C	6%	-2	?	-1.3	2	-2.8	-5.0	2
O=C(CC(n1cncn1)C(Cl)(Cl)Cl)c1ccc([N+](=O)[O-])cc1 (stereo not drawn)	11%	37	-3.0	2.1	1	2.8	-2.9	-10
Cc1cccc(NC(=O)NNC(=O)c2ccc3ccccc3c2)c1	/	-8	2.4	0.5	-4	-3.5	-1.6	-21
CCOC(=O)c1[nH]c2c(c1-c1ccccc1)C(=O)CC(c1ccccc1)C2 (stereo not drawn)	/	-6	4.9	-0.7	0	0.0	2.7	-5
COc1cc(OC)c(C(=O)N2CCN(c3ccccn3)CC2)cc1OC	/	-2	0.5	0.2	1	-2.5	0.5	-8
O=C(CCc1nc(-c2ccc(Cl)cc2)no1)NCC1CCCO1 (stereo not drawn)	1%	-15	3.7	0.7	5	-1.8	1.1	-12
Cc1ccc(-c2nnc(N3CCOCC3)c3ccccc23)cc1S(=O)(=O)NCc1cccnc1	19%	-1	/	-0.5	12	1.0	5.4	?
CC(C)(C)C(=O)COC(=O)c1c2c(nc3ccccc13)CCC2	1%	19	0.7	-0.4	2	-0.9	-1.8	9
CCCCCCC1NC(C(=O)O)CS1 (stereo not drawn)	-8%	-18	-0.4	0.8	-1	/	-2.2	-4
Cc1[nH]nc2c1C1(CCN(C(=O)OCc3ccccc3)CC1)C(C#N)=C(N)O2	-1%	-7	-0.9	-1.0	-6	/	3.8	1
COc1ccc(N(C(=O)c2cnccn2)C(C(=O)NC2CCCCC2)c2cc(OC)c(OC)c(OC)c2)cc1 (stereo not drawn)	/	-8	0.8	0.0	-3	1.3	0.9	-2
OCC1(Cc2cccc(F)c2)CCN(Cc2cccc3nccnc23)CC1	-12%	7	0.4	-0.3	-1	1.0	-6.9	12
O=C(CN1CCN(Cc2ccccc2F)C1=O)NC1CCCC1	-2%	-4	1.7	0.4	-2	-0.6	2.9	-6
Cc1ccc(OCC(=O)NC2CCCc3ccccc32)c(C)c1 (stereo not drawn)	-7%	19	6.7	0.0	-2	/	0.4	6
CC(=O)c1ccc(NC(=O)/C(=C\c2ccco2)NC(=O)c2ccco2)cc1	6%	-7	8.7	-0.2	-13	-0.2	-2.3	0
CCOc1ccc(NC(=O)CN(C)C(=O)c2csc3c2CCCC3)cc1OCC	4%	/	/	0.5	-3	7.4	-0.9	/
NCC(=O)NNC(=O)OCC1c2ccccc2-c2ccccc21	-2%	-18	-0.8	0.2	0	-15	-2.2	-9
Cc1cc(C)cc(N=C(NO)c2cccc([N+](=O)[O-])c2)c1	5%	-2	-2.8	-0.3	-4	/	8.2	36
CC(C)CC(=O)N1CCN(Cc2cccc(Cl)c2)CC1	1%	0	2.5	-0.3	4	-0.7	-8.6	7
